Screens from PubChem BioAssay.
VDR inh: inhibitors of human vitamin D receptor. P11473. VDR-SRC2-3 peptide fluorescence polarization, 2 h. Potency, µM, for the others: max response, negative = inhibition, most hits filed as inhibitors. hit rate 0.93% among 400,000; active = well fitted inhibition curve with a large enough effect; inconclusive = small, poorly fitted or top-dose-only effect, or another doubt; inactive = no such curve, though single readings can be large or run the other way; note: series mostly up to about 120 µM
Target sequence (P11473 whole entry, looked up): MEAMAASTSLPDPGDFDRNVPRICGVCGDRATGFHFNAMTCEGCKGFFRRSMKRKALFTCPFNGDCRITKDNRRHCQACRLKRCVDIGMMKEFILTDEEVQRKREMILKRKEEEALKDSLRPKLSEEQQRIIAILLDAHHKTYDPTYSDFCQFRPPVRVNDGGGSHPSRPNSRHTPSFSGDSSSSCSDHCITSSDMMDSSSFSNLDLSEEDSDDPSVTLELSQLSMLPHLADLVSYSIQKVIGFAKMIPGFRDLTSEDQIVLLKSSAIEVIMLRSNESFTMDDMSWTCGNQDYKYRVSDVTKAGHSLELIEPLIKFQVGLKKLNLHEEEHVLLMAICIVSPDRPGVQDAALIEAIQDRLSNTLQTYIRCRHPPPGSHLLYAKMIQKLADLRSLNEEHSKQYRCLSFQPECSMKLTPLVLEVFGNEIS
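Compounds are added to VDR with labelled SRC2-3 coactivator peptide and held 2 h at room temperature. Inhibition of the VDR–peptide interaction is then read as a change in fluorescence polarization.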
* marks the source's active call; other numbers are inactive results; ? = inconclusive; & = joins results of further samples. % is set by controls: 0 for no effect and ±100 for the full control effect; potency is the fitted concentration of half-maximal effect.

SMILES | VDR inh
O=C1OC(c2cc(I)c(O)c(I)c2)(c2cc(I)c(O)c(I)c2)c2ccccc21 | 20µM*
O=C(O)CP(=O)(O)c1ccc(Cl)cc1 | 7%
CN[C@@H]1C[C@H](c2ccc(Cl)c(Cl)c2)c2ccccc21 | ?
Cc1ccc(Oc2cc(NN3CCCCC3)c([N+](=O)[O-])cc2[N+](=O)[O-])c([N+](=O)[O-])c1 | 7%
CC1CCC(NCCc2ccc3c(c2)OCO3)CC1 (configuration not stated) | 13%
CC(=O)N(C)CC#CCN1CCC(O)CC1 | -12%
CC(=O)Nc1ccccc1C(=O)OCc1ccccc1F | 9%
Cc1ccc2cc(C=C(C#N)C#N)c(Cl)nc2c1 | 35µM*
O=C1NC(=O)C(=Cc2ccccc2[N+](=O)[O-])C(=O)N1 | ?
Nc1cc(N2CCNCC2)c([N+](=O)[O-])cc1Cl | 6%
CC(C)(O)C1O[C@H]2CC[C@@]3(C)[C@@](O)(CC[C@H]4Cc5c([nH]c6ccccc56)[C@@]43C)C2=CC1=O (some centres not stated) | -10%&-13%&-9%
COc1ccc(N2C(=O)/C(=C/c3ccc(C)o3)C(=O)NC2=S)c(OC)c1 | 7%
CC(=NCCN1CCOCC1)c1c(O)n(-c2ccccc2C)c(=O)[nH]c1=O | -16%
Cc1ccccc1C1=NCC(=O)N(CC(=O)NCc2ccco2)c2sc3c(c21)CCCC3 | 2%
CC(=O)NBr | -2%
CC(C)c1ccc(N2C(=O)NC(=O)/C(=C/c3cnc(-c4ccccc4)nc3)C2=O)cc1 | 35µM*
COc1ccc(C2(C#N)CC[N+](C)(C)CC2)cc1 | -5%
CC12CCC3c4ccc(OP(=O)(N5CC5)N5CC5)cc4CCC3C1CCC2=O (configuration not stated) | -8%
CCCNC(=O)c1c(N)n(CC2CCCO2)c2nc3ccccc3nc12 (configuration not stated) | -8%
O=c1[nH]c2c(c(=O)n1C1CCCCC1)CCC2 | -8%
OC1/C(=C/c2ccccc2F)N2CCC1CC2 (configuration not stated) | -3%
NC(Cc1cc(O)c(O)cc1O)C(=O)O (configuration not stated) | 45µM*
Cc1ccc2c(c1)Cc1c(C(=O)NN3CCCCC3)nn(-c3ccc(Cl)cc3Cl)c1-2 | 0%
Oc1cccc2nc3ccccc3nc12 | -8%
CCOc1cc2[nH]c(=S)n(CCCC(=O)N3CCC4(CC3)OCCO4)c(=O)c2cc1OCC | -2%

Structures from the list above that have four or more nitrogen atoms (six):
SMILES | VDR inh
Cc1ccc(Oc2cc(NN3CCCCC3)c([N+](=O)[O-])cc2[N+](=O)[O-])c([N+](=O)[O-])c1 | 7%
Nc1cc(N2CCNCC2)c([N+](=O)[O-])cc1Cl | 6%
CC(=NCCN1CCOCC1)c1c(O)n(-c2ccccc2C)c(=O)[nH]c1=O | -16%
CC(C)c1ccc(N2C(=O)NC(=O)/C(=C/c3cnc(-c4ccccc4)nc3)C2=O)cc1 | 35µM*
CCCNC(=O)c1c(N)n(CC2CCCO2)c2nc3ccccc3nc12 (configuration not stated) | -8%
Cc1ccc2c(c1)Cc1c(C(=O)NN3CCCCC3)nn(-c3ccc(Cl)cc3Cl)c1-2 | 0%

(further entries)
SMILES | VDR inh
CCOc1ccc(CN(CCCl)CCCl)cc1C(=O)OC | 7%
CCOC(=O)COc1ccc(/C=C2\C(=O)NC(=S)N(c3ccc(OC)cc3)C2=O)cc1OC | 45µM*
N#CC1=C(N)Oc2c(c(=O)sc3ccccc23)C1c1ccncc1 (configuration not stated) | -5%
O=C(Oc1ccc(Cl)cc1)N1CCOCC1 | 79µM*
O=C1NC(=O)N(Cc2ccccc2)C(=O)/C1=C\C=C\c1ccco1 | ?
COC(=O)C1=C(c2ccccc2OCc2ccccc2)C[C@@H]2CC[C@H]1N2C(=O)NCc1ccc(OC)cc1 | -9%
Cc1cccc(C(=O)NC(Oc2ccccc2)C(Cl)(Cl)Cl)c1 (configuration not stated) | ?
CC(=O)OC1C(=O)OCC23CCC4(C)OC4C2OC2CC(OC(=O)C=CC=CC(=O)OCCC1C)C3(C)C21CO1 (configuration not stated) | 4%
O=C1NC(=O)N(c2ccc3c(c2)OCO3)C(=O)/C1=C\c1ccc(-c2ccccc2C(=O)O)o1 | ?
CN1C(=O)C(=Cc2c(OCc3cnc(Cl)s3)ccc3ccccc23)C(=O)N(C)C1=O | ?
COC(=O)C1=C(c2ccc(C(C)=O)cc2)C[C@@H]2CC[C@H]1N2C | -9%
O=C(/C=C/c1ccccc1)c1c(O)n(CCc2ccccc2)c(=O)[nH]c1=O | ?
CC1(C)CC(=O)C(C=NCCN2CCN(C(=O)Cc3ccc(F)cc3)CC2)=C(O)C1 | -3%
O=C(CN1CC(c2ccccc2)CC1=O)Nc1ccccc1 (configuration not stated) | -6%
O=C(Cn1nc(Cc2cccnc2)c2ccccc2c1=O)N1CCC2(CC1)OCCO2 | 3%
CCN1C(=O)C(=Cc2c(C)n(CC(=O)NCC3CCCO3)c3ccccc23)C(=O)N(CC)C1=S (configuration not stated) | ?
O=c1[nH]c(O)c(C=Nc2ccccc2Oc2ccccc2)c(=O)[nH]1 | 5%
C[n+]1ccc(-c2cc[n+](C)cc2)cc1 | 5%
C=CCN1C(=O)CSc2ccc(C(=O)N3CCC4(CC3)OCCO4)cc21 | 7%
COC(=O)C1=C(c2ccc(F)cc2F)C[C@@H]2CC[C@H]1N2C(=O)NCCO | -10%
Cc1ccc[n+](CC(O)Cn2c3ccccc3c3ccccc32)c1 (configuration not stated) | -8%
Cc1cc(C)cc(N2C(=O)/C(=C\c3ccc(N4CCN(C)CC4)o3)C(=O)NC2=S)c1 | -3%
COc1ccc(Cn2c(N)c(C(=O)NCc3ccco3)c3nc4ccccc4nc32)cc1 | -12%
c1ccc(CCn2nnnc2CN2CCC(n3nnc4ccccc43)CC2)cc1 | -9%
O=C1c2ccccc2C(=O)N1Cc1nc2ccccc2c(=O)n1-c1ccc(Br)cn1 | 6%
SMILES | VDR inh
O=S(=O)(NC1CCCCCCC1)OCC(Cl)(Cl)Cl | 4%
N#CC(O[C@@H]1OC(COC2OC(CO)C(O)C(O)[C@@H]2O)C(O)C(O)C1O)c1ccccc1 (some centres not stated) | -2%
CCC(Oc1cc(Cl)ccc1Cl)C(=O)N1CCC2(CC1)OCCO2 (configuration not stated) | 2%
Cc1ccnc(-n2c(-c3ccco3)nc3ccccc3c2=O)c1 | 8%
COC(=O)[C@@H]1C[C@H]1[C@@H](NP(=O)(c1ccccc1)c1ccccc1)c1ccccc1 | 0%
CCC(=NCCc1c[nH]c2ccccc12)c1c(O)n(C)c(=O)n(C)c1=O | 11%
O=C(O)CSCC(=O)N(Cc1ccccc1)c1nc(-c2ccccc2)c(-c2ccccc2)s1 | ?
Cc1cccc(-n2c(O)c(C=NCc3cccnc3)c(=O)[nH]c2=O)c1C | 8%
CCCCCSc1cc(OC)c(CCN)cc1OC | -2%
O=C([O-])c1ccc(-[n+]2c(-c3ccccc3)cc(-c3ccccc3)cc2-c2ccccc2)cc1 | -12%
Cc1ccccc1NP(=O)(Oc1ccccc1F)Oc1ccccc1F | 10%
c1ccc(CCNCc2cccnc2)cc1 | 3%
Brc1ccc(Oc2ccc(Br)cc2Br)c(Br)c1 | -10%
COC(=O)C1=C(c2cc3ccccc3s2)C[C@@H]2CC[C@H]1N2C(=O)N1CCCCC1 | -29%
O=c1[nH]c(=O)n(CCc2ccc(F)cc2)c(O)c1/C=N/N1CCCCC1 | ?
COc1ccc(CN2CCNCC2)cc1 | 5%
COC(=O)C1=C(c2ccc3ccccc3c2)C[C@@H]2CC[C@H]1N2C(=O)N1CCOCC1 | -16%
C=CCN1C(=O)/C(=C/c2ccc(N3CCOCC3)o2)C(=O)NC1=S | -5%
CC(=O)[C@@H]1CC[C@@H]2[C@@H]3CCC4=CC(=O)CC[C@@]4(C)[C@H]3CC[C@]21C | ?
Cc1cc(OCC(=O)O)c2c3c(c(=O)oc2c1)CCCC3 | -16%
CCOC(=O)CC1c2ccccc2-n2nncc2CN1Cc1ccc(OC)cc1 (configuration not stated) | 3%
Clc1c(Cl)c(Cl)c(Cl)c(Cl)c1Cl | 1%
O=NN1CCCCC1 | -17%
COc1cc(C(=O)NN=Cc2ccc(N(CCCl)CCCl)cc2)cc(OC)c1OC | 0%
Cc1cccc(N2CCN(Cc3ccc4c(c3)OCO4)CC2)c1C | 4%
SMILES | VDR inh
CC(C)c1cc2c(c(O)c1O)[C@]1(C(=O)O)CCCC(C)(C)C1CC2 (some centres not stated) | 45µM*
COC(=O)NC(=C(Cl)Cl)P(=O)(c1ccccc1)c1ccccc1 | -9%
O=c1c(C=NCCN2CCNCC2)c(O)n(C2CCCCC2)c(=O)n1C1CCCCC1 | -20%
O=C(Oc1ccccc1)N1CCC2(CCCN(C(c3ccccc3)c3ccccc3)C2)CC1 | -3%
CCOC(=O)C(O)(c1ccc(NC(=O)Oc2ccccc2)cc1)C(F)(F)F (configuration not stated) | -18%
O=C(c1ccccc1F)c1cn(CC(=O)N2CCOCC2)c2ccccc12 | -19%
CC1=CCCC2C1(C)CCC(C)C2(C)CC/C(C)=C/C[n+]1cn(C)c2c(N)ncnc21 (configuration not stated) | ?
CC1(c2ccc(Cl)cc2Cl)OCC(Cn2cncn2)O1 (configuration not stated) | -3%
N#CC(C#N)=Cc1cc(O)c(O)c([N+](=O)[O-])c1 | 45µM*
CC(=O)Nc1cccc([As](=O)(c2cccc(NC(C)=O)c2)c2cccc(NC(C)=O)c2)c1 | -9%
C=CCn1c(O)c(/C=C2/C=c3ccccc3=N2)c(=O)[nH]c1=S | 19%
COc1ccccc1OC(=O)c1ccc(C)c(S(=O)(=O)N2CCOCC2)c1 | 27%
CCCc1nc2ccccc2c(=O)n1-c1ccccc1OC | -6%
CCN(CC)C(=O)c1ccc(NC(=O)c2cccc(S(=O)(=O)N3CCN(C)CC3)c2)cc1 | -13%
CCS(=O)(=O)N1CCCC(C(=O)N2CCC3(CC2)OCCO3)C1 (configuration not stated) | -2%
O=C1NC(=O)C(Cc2cccs2)C(=O)N1 | -14%
CC(C)c1ccc(NC(=O)CN2C(=O)CN=C(c3ccccc3)c3ccccc32)cc1 | -5%
CC(C)(C)NC(=S)/N=C(\N)N[N+](=O)[O-] | -18%
CC(C)N(CC(O)c1cccc([N+](=O)[O-])c1)C(C)C (configuration not stated) | -13%
CCOC(=O)c1c(/N=C/c2c(O)n(-c3ccc(F)cc3)c(=S)[nH]c2=O)sc2c1CCCC2 | -24%
CCOC(=O)c1cnc(SCc2ccc(Cl)c(Cl)c2)nc1N1CC1 | -10%
CN(N=O)c1cc(O)ccc1O | 45µM*
O=c1[nH]c(=O)n(Cc2ccc(F)cc2)c(O)c1C=Nc1ccc(Cl)cc1 | 11%
OC(CN1CCOCC1)c1csc2ccccc12 (configuration not stated) | 9%
CCN1CCN(Cc2ccc(C)cc2)CC1 | 11%
SMILES | VDR inh
CN1CCN(Cc2cc(=O)n3ccsc3n2)CC1 | -11%
CN1CC[C@@]2(CCCN(C(=O)c3csnn3)C2)C1 | 45µM*
CC1=NNC(=O)C1Br (configuration not stated) | ?
Cc1ccc(Cc2c(C)nc3nc(SCC(=O)N4CCC5(CC4)OCCO5)nn3c2C)cc1 | 1%
CC(=Nc1ccc(F)cc1)c1c(O)n(C)c(=O)[nH]c1=O | -13%
CN1C(=O)C(Cc2ccc(OCc3ccccc3)cc2)C(=O)N(C)C1=O | ?
C[C@H]1CC[C@@H]2[C@@H](C)[C@H]3[C@H](C[C@H]4[C@@H]5CC=C6CC(O[C@@H]7O[C@H](CO)[C@H](O)[C@H](O[C@@H]8O[C@H](CO)[C@@H](O)[C@H](O)[C@H]8O)[C@H]7O[C@H]7O[C@@H](C)[C@H](O)[C@@H](O)[C@H]7O)CC[C@]6(C)[C@H]5CC[C@]34C)N2C1 (some centres not stated) | ?
CN1CC(C#N)C2(O)c3ccccc3CCC2C1 (configuration not stated) | -10%
C[C@]12CCC3C(C1CCC2=O)[C@H](O)C[C@H]1C[C@@H](O)CC[C@]31C (some centres not stated) | -11%
COC[C@H]([C@@H](O)[C@@H](O)C(=O)NCC[C@@H](C)c1nc(/C=C/C[C@H]2OC3(C[C@H](O)[C@H]2C)OC([C@@H](C[C@@H](O)[C@@H](C)[C@@H](O)[C@@H](C)/C=C(C)/C(C)=C/C=C/C(C)=C\C#N)OC)[C@@H](OP(=O)(O)O)C3(C)C)co1)N(C)C (some centres not stated) | 2%&-4%
CC(C)(C)NCC(O)c1cc(Cl)c(N)c(Cl)c1 (configuration not stated) | 3%&8%&-14%&5%
CCc1ccc(CN2CCN(Cc3ccc(SC)cc3)CC2)cc1 | 8%
COC(=O)C1=C(c2ccc(C(C)=O)cc2)C[C@@H]2CC[C@H]1N2C(=O)NCCNC(C)=O | 2%
CC1CCN(c2cc(Br)c([N+](=O)[O-])cc2F)CC1 | -2%
CC(=O)Nc1ccccc1C(=O)OCC(=O)c1ccc2ccccc2c1 | 1%
COc1ccc(CCN(C)Cc2ccc(F)cc2F)cc1OC | -2%
CC(=O)OC1CC(OC(C)=O)[C@]2(C)C(CC(OC(C)=O)[C@]3(C)C2CC[C@@]2(C)C(c4ccoc4)C(=O)C4O[C@]432)C1(C)C (some centres not stated) | -4%

A different layout for part of the listing above:
| canonical_smiles | VDR inh |
| --- | --- |
| CN1CC[C@@]2(CCCN(C(=O)c3csnn3)C2)C1 | 45µM* |
| CC(C)(C)NCC(O)c1cc(Cl)c(N)c(Cl)c1 (configuration not stated) | 3%&8%&-14%&5% |
| C[C@]12CCC3C(C1CCC2=O)[C@H](O)C[C@H]1C[C@@H](O)CC[C@]31C (some centres not stated) | -11% |
| CN1CC(C#N)C2(O)c3ccccc3CCC2C1 (configuration not stated) | -10% |
| CC1CCN(c2cc(Br)c([N+](=O)[O-])cc2F)CC1 | -2% |
| Cc1ccc(Cc2c(C)nc3nc(SCC(=O)N4CCC5(CC4)OCCO5)nn3c2C)cc1 | 1% |

A portion of the library, so the mix of outcomes need not match the whole.
